# Bioassay records as filed in PubChem.
# Cruzain inh noDet – qHTS Assay for Promiscuous and Specific Inhibitors of Cruzain (without detergent) | Cruzipain (Trypanosoma cruzi), P25779 | AID 1476, 2009 | actives 2.3% (n = 200,000) | purified cruzain, Z-FR-AMC fluorescence, no detergent | Potency, µM, inactives show max response, negative = inhibition, hits mostly inhibitors; active = well fitted curve in the direction sought with a large enough effect; inconclusive = small, poorly fitted or top-dose-only effect, or another doubt; inactive = no such curve, though single readings can be large; an effect the other way counts as inactive or inconclusive;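 note: plate controls were enzyme without inhibitor for no effect and buffer without enzyme for full effect; nearly all actives have a fitted effect of over 40% in size; top concentration of the series not given in the record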
# Target sequence (P25779 123-467 limits assumed): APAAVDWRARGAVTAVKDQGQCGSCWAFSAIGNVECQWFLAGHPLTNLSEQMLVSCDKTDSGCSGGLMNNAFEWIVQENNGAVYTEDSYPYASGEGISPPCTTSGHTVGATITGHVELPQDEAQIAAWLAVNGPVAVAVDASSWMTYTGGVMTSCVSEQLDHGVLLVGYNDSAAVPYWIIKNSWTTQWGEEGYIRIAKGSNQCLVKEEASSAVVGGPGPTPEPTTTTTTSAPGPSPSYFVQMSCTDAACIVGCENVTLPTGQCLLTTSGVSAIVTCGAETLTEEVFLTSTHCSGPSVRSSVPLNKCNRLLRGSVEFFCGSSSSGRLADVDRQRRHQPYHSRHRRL
#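 Purified cruzain at 1.5 nM, pre-incubated 15 min with compound at room temperature in 100 mM sodium acetate pH 5.5, 5 mM DTT, 0.00005% Triton X-100. Reaction started with 2 uM Z-FR-AMC; AMC fluorescence increase over 60 s gives rate.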
# MARV entry inh – qHTS for inhibitors of binding or entry into cells for Marburg Virus. actives 1.8% (n = 300,000). Potency, µM (doses to about 37.8 µM), for inactives: at the highest dose activity change, negative = inhibition, hits mostly inhibitors. Marburg virus pseudotyped entry inhibition, cell reporter; control for the full effect not named in the record; about a third of the inactives were read at about 46 µM. AID 540276, 2011; active = well fitted inhibition curve with a large enough effect; inconclusive = small, poorly fitted or top-dose-only effect, or effect the other way; inactive = flat fitted curve, though single readings scatter; tested in HEK293 cells; about a fifth of its hits are not listed in these tables; note: % is set by controls: 0 for no effect and ±100 for the full control effect; luciferase read-out
# 2A StopGo – High Throughput Screening for Foot and Mouth Disease Virus Antivirals; human cells with a luciferase reporter of 2A StopGo recoding; control for the full effect not named in the record; Potency, µM (highest dose often 57.9 µM), without a hit: at the top dose signal change, negative = less light; actives 1.2% (n = 410,000); active = well fitted falling curve with a large enough effect; inconclusive = small, poorly fitted or top-dose-only effect; inactive = no such curve, though single readings can be large or run the other way; tested in HEK293T cells; note: % is set by controls: 0 for no effect and ±100 for the full control effect; nearly all actives have a fitted effect of over 45% in size; luciferase light after 4 h
# NS1 inh – qHTS Assay for Inhibitors of Influenza NS1 Protein Function; AID 2326, 2010; S. cerevisiae slowed by influenza A NS1, growth recovery by OD600; Potency, µM (doses to about 46.1 µM), for inactives: top-dose activity, positive = more growth; actives 0.4% (n = 270,000); note: actives are rising curves; nearly all actives have a fitted effect of over 50% in size
#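 In this qHTS, NS1 from influenza A is expressed in budding yeast, where it slows growth. Cells are switched from glucose to 2% galactose medium (pH 6.0, -URA), treated with compound, and growth recovery is read at OD600.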
# Lassa entry inh – qHTS for Inhibitors of binding or entry into cells for Lassa Virus | Lassa virus pseudotype entry inhibition, cell reporter; control for the full effect not named in the record | AID 540256, 2011 | actives 1.2% (n = 300,000) | Potency, µM (top dose mostly 37.9 µM), without a hit: at the highest dose activity change, negative = inhibition, actives largely listed as inhibitors; active means well fitted inhibition curve with a large enough effect; inconclusive means small, poorly fitted or top-dose-only effect, or effect the other way; inactive means flat fitted curve, though single readings scatter; tested in HEK293 cells; note: % is set by controls: 0 for no effect and ±100 for the full control effect; nearly all actives have a fitted effect of over 50% in size; luciferase read-out
# SARS PLP yeast – qHTS of Yeast-based Assay for SARS-CoV PLP. Potency, µM (series often up to 32.9 µM), for inactives: at the highest dose activity, positive = growth rescue. actives 0.19% (n = 330,000). S. cerevisiae expressing SARS-CoV PLpro, growth rescue; control for the full effect not named in the record; note: 0% is about no effect; nearly all actives have a fitted effect of over 55% in size; growth read by luminescence after 48 h
# Cruzain Triton – qHTS Assay for Promiscuous and Specific Inhibitors of Cruzain (with detergent); Cruzipain (Trypanosoma cruzi), P25779; purified cruzain, Z-FR-AMC fluorescence, 0.01% Triton; Potency, µM, for the others: max response, negative = inhibition, usual class: inhibitors; actives 0.43% (n = 200,000); active = well fitted curve in the direction sought with a large enough effect; inconclusive = small, poorly fitted or top-dose-only effect, or another doubt; inactive = no such curve, though single readings can be large; an effect the other way counts as inactive or inconclusive;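 note: plate controls were neutral wells for no effect and buffer without enzyme for full effect; nearly all actives have a fitted effect of over 40% in size; top concentration of the series not given in the record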
#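 Cysteine protease activity tested under reducing, mildly acidic conditions (100 mM sodium acetate pH 5.5, 5 mM DTT) plus 0.01% Triton X-100. Cruzain 1.5 nM; substrate Z-FR-AMC 2 uM; 15 min compound preincubation at room temperature.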
# RE007 growth inh – qHTS Assay for Inhibitors of the HIV-1 protein Vpr; S. pombe RE007 Vpr strain, BacTiter-Glo ATP luminescence, 24 h; control for the full effect not named in the record; Potency, µM (series often up to 92.2 µM), for inactives: at the top dose activity change, negative = less growth; actives 0.21% (n = 360,000); AID 651644, 2012; active = well fitted falling curve with a large enough effect; inconclusive = small, poorly fitted or top-dose-only effect; inactive = no such curve, though single readings can be large or run the other way;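 note: % is set by controls: 0 for no effect and ±100 for the full control effect; nearly all actives have a fitted effect of over 50% in size; the assay follows cell death caused by Vpr and the record does not say whether a fall means rescue or toxicity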
#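 Fission yeast strain RE007, carrying one chromosomally integrated HIV-1 vpr copy, was seeded at OD 0.01 in PMG+AL medium with 23 nL pinned compound. After 24 h at 30 °C and 99% humidity, viability was read by BacTiter-Glo luminescence.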
# An asterisk follows results filed as active; ? = inconclusive; . = no result given; & = joins results of further samples; [ ] = remark or other dose. Unless noted, calls come from the whole dose curve; as a rule, active means well fitted rising curve with a large enough effect; inconclusive means small, poorly fitted or top-dose-only effect; inactive means no such curve, though single readings can be large or run the other way. Potency is the fitted concentration of half-maximal effect.
SMILES,Cruzain inh noDet,MARV entry inh,2A StopGo,NS1 inh,Lassa entry inh,SARS PLP yeast,Cruzain Triton,RE007 growth inh
CCC(=O)c1ccc(OCC(=O)N(CC)CC(=O)Nc2ccccc2OC)cc1,.,16.0%,-4.4%,.,-4.7%,0.5%,.,-3.2%
Cc1ccc(-c2cc(C(=O)N3CCOCC3)c3cc(C)ccc3n2)cc1,.,-23.8%[46.1 µM],41.6%[activator],-21.8%,3.9%,-4.1%,.,-8.6%
CCc1cccc(NC2c3ccccc3C(=O)N2c2cccnc2)c1 (stereo not drawn),?,.,-15.9%,-33.4%,.,3.1%,-2.9%,-12.5%
CCOCCCNC(=O)C(NC(=O)Cc1cccs1)c1ccc(Cl)cc1 (stereo not drawn),.,0.0%[46.1 µM],-0.3%,.,.,2.2%,.,-9.5%
COC(=O)c1ccc2c(=O)n(Cc3ccco3)c(SCC(=O)Nc3cc(C)on3)nc2c1,.,.,0.0%,1.3%,.,-0.3%,.,-3.5%
COc1ccccc1CN1CCN(C(=O)COc2ccccc2)CC1,2.1%,0.3%,1.0%,-1.0%,-13.1%,2.0%,5.3%,3.8%
O=C(CNCC1CCCO1)N1CCCCCC1 (stereo not drawn),.,6.5%[46.1 µM],3.5%,8.4%,9.2%,-1.5%,.,4.5%
CCOC(=O)C1C(c2ccc(C(=O)O)cc2)NC(=O)NC1(O)C(F)(F)F (stereo not drawn),.,5.5%[46.1 µM],-12.9%,1.3%,-1.9%,2.4%,.,-5.5%
CCOC(=O)c1c(S(=O)(=O)N2CCC(C(=O)NCc3cccc(C)c3)CC2)c(C)n(C)c1C,?,.,0.5%,.,0.4%[46.1 µM],.,1.1%,.
CCOC(=O)N1CCC(Nc2c(N3CCN(c4cc(Cl)ccc4C)CC3)c(=O)c2=O)CC1,?,.,0.0%,-47.7%,.,5.9%,-13.7%,-2.3%
COc1ccc(OC)c(CCNC(=O)c2cnn(-c3ccccc3Cl)c2C2CCN(C(=O)OC(C)(C)C)CC2)c1,?,.,?,.,?,.,-7.8%,.
O=C(NC1CCCC1)C(c1ccccc1)N(Cc1ccccc1)C(=O)c1csnn1 (stereo not drawn),.,?,16.1%,-0.7%,8.5%[46.1 µM],0.7%,.,-10.8%
CC(C)CC(=O)NC(=S)Nc1ccc(N2CCOCC2)c(Cl)c1,.,-1.4%,-6.1%,7.6%,?,0.5%,.,-22.3%
CCN(CC)S(=O)(=O)c1cccc(C(=O)Oc2cccnc2)c1,-0.1%,2.9%,13.3%,-7.7%,22.3%,-9.6%,-2.1%,3.4%
Cc1ccc(-c2csc(NC(=O)CSC3=NCCS3)n2)cc1,?,-6.3%,-24.8%,3.3%,-16.9%,-31.0%,-8.1%,-2.9%[3.69 µM]
Cc1cc(-c2ccccc2)nc(=O)[nH]1,2.8%,-0.1%,8.8%,-19.5%,25.5%,2.6%,0.0%,10.1%
COCCCNc1nc2nonc2nc1N1CCN(Cc2cccc(C)c2)CC1,.,-2.6%[46.1 µM],-11.0%,-2.4%,-6.4%[46.1 µM],1.1%,.,13.6%
CN(Cc1c(F)cccc1Cl)C(=O)c1cc2ccccc2o1,.,9.5%,95.3%[activator],.,8.9%,-0.8%,.,?
CC1CCN(C(c2ccc(N(C)C)cc2)c2nnnn2Cc2ccccc2)CC1 (stereo not drawn),8.7%,-3.2%,11.5%,5.7%,3.1%,-2.1%,0.5%,3.3%
Cc1ccc(NC(=O)CN2CCCCCC2)cc1[N+](=O)[O-],.,-12.0%[46.1 µM],66.2%[activator],.,3.2%,0.7%,.,-5.2%
CCOC(=O)N1CCN(S(=O)(=O)c2ccc(C(=O)Nc3sc4c(c3C(=O)OC)CCN(C)C4)cc2)CC1,.,?,-12.0%,13.3%,-10.4%[46.1 µM],-3.3%,.,-13.1%
CCOC(=O)c1ccc(NC(=O)N2CCOCC2)cc1,.,13.2%,57.7%[activator],.,?,2.3%,.,-4.2%
CCCS(=O)(=O)N1CCCC(C(=O)Oc2ccc(C)c(C)c2)C1 (stereo not drawn),.,-0.2%,-6.3%,7.5%,-2.0%,-9.1%,.,10.6%
O=c1c(Cl)c(NCCO)cnn1-c1cccc(Cl)c1,.,6.8%[46.1 µM],18.5%,.,?,0.2%,.,11.0%
COc1ccc(NC(=O)C2CC(c3cccc(Br)c3)=NO2)cc1OC (stereo not drawn),.,4.8%,-4.6%,-1.5%,0.5%,1.6%,.,3.9%
O=C(/C=C/Nc1ccccc1)c1cnc(-c2ccccc2)s1,12.6µM*,?,15.9%,-8.8%,2.8%,2.1%,3.1%,22.9%
COc1ccc(NC(=O)[C@@H]2CCCN2C(=O)[C@@H]2Cc3ccccc3CN2C(=O)OC(C)(C)C)cc1,.,-19.5%[46.1 µM],-1.8%,5.5%,?,-2.8%,.,-15.2%
COc1ccc(N(Cc2ccccc2)S(=O)(=O)c2cccc(C(=O)O)c2)cc1,.,.,-13.5%,-5.1%,.,0.3%,.,6.7%
CCCOc1ccccc1OCC(=O)Nc1ccc(S(=O)(=O)N2CCCCC2)cc1,.,?,-11.9%,.,?,1.0%,.,-6.6%
COc1ccccc1N1C(=O)c2ccc(C(=O)Nc3cccc(C(C)=O)c3)cc2C1=O,.,.,-21.6%,10.9%,.,1.7%,.,-3.6%
CNS(=O)(=O)c1cc(NC(=O)c2cnc(SC)n2-c2ccccc2)ccc1C,.,?,2.8%,9.9%,0.8%[46.1 µM],0.5%,.,7.4%
CCCc1cc(=O)[nH]c(SCC(=O)Nc2nc3ccc(OCC)cc3s2)n1,.,3.2%,31.5%[activator],-5.7%,2.2%,-0.9%,.,0.8%
c1ccc(-c2cc(-c3ccccc3)[nH]n2)cc1,.,.,62.4%[activator],-36.1%,.,5.0%,.,-6.5%
C[n+]1ccn(CC(=O)c2cc(C(C)(C)C)c(O)c(C(C)(C)C)c2)c1,.,.,-8.4%,5.7%,.,1.4%,.,6.6%
O=C(NCCCN1CCCCC1)C1(S(=O)(=O)c2ccc(Cl)cc2)CC1,-3.9%,.,-17.3%,-5.0%,.,3.6%,2.8%,-10.7%
CCCn1c(N)c(N(CCOC)C(=O)/C=C/c2cccc(Cl)c2)c(=O)[nH]c1=O,.,16.5%[46.1 µM],9.9%,.,21.2%[46.1 µM],-0.1%,.,11.9%
O=C(/C=C/c1ccccc1)Nc1nc2n(n1)C(c1ccc(F)cc1)C=C(c1ccccc1)N2 (stereo not drawn),-2.7%,5.3%[46.1 µM],-9.9%,.,-28.9%[46.1 µM],.,-8.8%,.
Cc1cc(C)n(-c2ccc(C(=O)Nc3nnc(C)s3)cc2)n1,?,-11.0%,7.4%,-8.5%,1.6%,6.2%,0.5%,-22.7%
CN(C)c1cccc(C(=O)N2CCC(c3ccncc3)CC2)c1,-6.6%,.,-10.3%,.,-11.4%[46.1 µM],.,3.0%,.
CCCCCn1c(=N)c(S(=O)(=O)c2ccc(Br)cc2)cc2c(=O)n3cccc(C)c3nc21,.,10.9%[46.1 µM],13.5%,-7.2%,?,1.6%,.,-1.8%
Cn1c(-c2ccc3c(c2)OCO3)cc(=O)c2ccccc21,-8.6%,.,0.2%,0.1%,.,-2.7%,-14.0%,-16.6%
Cc1cc(OCC(=O)NCc2ccccn2)c2c(C)c(C)c(=O)oc2c1,.,-4.1%[46.1 µM],-12.9%,1.1%,-2.2%[46.1 µM],1.9%,.,21.0%
COCCNC(=O)C1CC(=O)N(C2CCCCC2)C1 (stereo not drawn),-1.1%,10.6%,-2.0%,-2.6%,1.2%,-4.8%,1.6%,0.4%
CCn1ncc(C2=NOC(C(=O)Nc3cccc(O)c3)C2)c1C (stereo not drawn),.,8.7%,-6.1%,.,-2.5%,-0.2%,.,8.8%
Cc1ccc(NC(=O)CCC(=O)N/N=C/c2coc3ccccc3c2=O)cc1,.,.,-23.5%,5.62µM*,.,-0.9%,.,-4.2%
CCCC(CCC)C(=O)Nc1cccc(C(=O)O)c1,7.4%,-7.3%,16.7%,4.9%,-15.1%,4.4%,4.7%,18.6%
Cc1ccc(Cl)cc1NC(=O)CSc1nncn1-c1ccccn1,.,7.4%[46.1 µM],-6.4%,-3.6%,-14.2%,-3.4%,.,25.6%
COc1ccc(C(CNC(=O)c2ccc(Cl)c(NC(=O)c3cccs3)c2)N2CCCC2)cc1 (stereo not drawn),.,-20.4%,-11.1%,.,-4.0%,0.8%,.,1.0%
COc1ccccc1N(CC(=O)Nc1ccccc1C)S(C)(=O)=O,2.8%,2.9%,.,13.1%,1.4%,0.9%,1.0%,-1.2%
O=C(Nc1nnc(S(=O)(=O)N2CCCCCC2)s1)c1ccccc1,?,.,59.2%&56.5%[activator],3.5%,10.0%[46.1 µM],2.4%,-8.2%,1.3%
Cc1cc(-c2ccc(S(=O)(=O)Nc3cccc(C(F)(F)F)c3)s2)on1,-26.1%,.,2.1%,.,3.5%[46.1 µM],.,-15.9%,.
CCCC(=O)Nc1ccc(Nc2ccccc2)cc1,13.0%,?,-9.5%,-20.4%,0.1%,-24.9%,-4.0%,-9.6%
CN1C(=O)c2ccccc2C(C(=O)O)C1c1cccc(F)c1 (stereo not drawn),-2.7%,-15.5%,3.3%,4.0%,3.3%,-10.7%,-0.4%,-4.5%
Fc1ccccc1N1CCN(CC2CC3C=CC2C3)CC1 (stereo not drawn),14.3%,?,.,0.4%,-19.0%,10.4%,3.1%,-12.5%
CC(C)c1ccc(NC2CCCN(C(=O)c3ccc(Cn4cnnn4)cc3)C2)cc1 (stereo not drawn),.,.,-29.9%,12.6%,.,3.8%,.,13.5%
CCN(CC)S(=O)(=O)c1ccc(OC)c(NC(=O)c2cccs2)c1,.,0.8%[46.1 µM],-11.5%,-6.0%,-25.5%[46.1 µM],-0.5%,.,3.9%
